Vaccinia Venus: inhibitors of vaccinia virus (Venus reporter); Vaccinia virus Venus reporter expression, fluorescence; 330,000 compounds, 0.46% hits; Potency, µM (titrated, usually from 36.5 µM), without a hit: top-dose activity change, negative = inhibition, actives largely listed as inhibitors; active means well fitted inhibition curve with a large enough effect; inconclusive means small, poorly fitted or top-dose-only effect; inactive means no such curve, though single readings can be large or run the other way; tested in A549 cells; also: nearly all actives have a fitted effect of over 30% in size; inactives centre near -10
Vaccinia mCherry: inhibitors of vaccinia virus infection (mCherry reporter signal); Vaccinia virus mCherry reporter infection, fluorescence; about a quarter of the inactives have no number; AID 720579; Potency, µM (top dose mostly 36.5 µM), for the others: at the top dose activity change, negative = inhibition, most hits filed as inhibitors; 310,000 compounds, 0.63% hits; active = well fitted inhibition curve with a large enough effect; inconclusive = small, poorly fitted or top-dose-only effect; inactive = no such curve, though single readings can be large or run the other way; tested in A549 cells; also: nearly all actives have a fitted effect of over 35% in size; inactives centre near -10
An asterisk follows results filed as active; i = inactive; ? = inconclusive; nt = not tested or not shown; [ ] = another dose, or the depositor's remark. % is scaled to controls: 0 for no effect and ±100 for the full control effect; potency is read from the fitted curve at half-maximal effect.

item | smiles | Vaccinia Venus | Vaccinia mCherry
1 | COc1ccc(NC(=O)C2COc3ccccc3O2)cc1 (configuration not stated) | -14% | i
2 | Cc1ccnc(NC(=O)c2cccs2)c1 | -6% | nt
3 | CCOc1ccc(Br)cc1C1C(C(=O)Nc2ccccc2OC)=C(C)Nc2nnnn21 (configuration not stated) | 5% | -12%
4 | CS(=O)(=O)N(CC(=O)NCCSC1CCCCC1)c1ccccc1 | -10% | -5%
5 | Cn1c(SCC(=O)NC2(C#N)CCCCC2)nnc1-c1cccnc1 | 1% | -13%
6 | O=C1C2CCCN2C(c2cccnc2)N1c1nccs1 (configuration not stated) | -7% | -14%
7 | Cc1ccc(CNC(=O)c2ccc(NS(=O)(=O)c3c(C)noc3C)cc2)cc1 | -14% | i
8 | COc1ccc2c(c1)c1c(c(=O)n(-c3ccc(F)c(Cl)c3)c(=O)n1Cc1cccc(C)c1)n2C | -5% | -12%
9 | CCN1CCN(CCNC(=O)c2cn(C(C)c3ccccc3F)nn2)CC1 (configuration not stated) | -6% | -12%
10 | Cn1cnnc1SCC(=O)Nc1cc(C(=O)O)cc(C(=O)O)c1 | -7% | 5%
11 | CC(C)c1ccc(C(=O)Nc2ccc(-c3nc4ccccc4s3)c(Cl)c2)cc1 | -25% | -24%
12 | CCC(COC)NC(=O)c1cnn(-c2ncc3c(n2)-c2ccccc2CC3)c1C (configuration not stated) | -12% | -20%

Complete entries from above:
`COc1ccc2c(c1)c1c(c(=O)n(-c3ccc(F)c(Cl)c3)c(=O)n1Cc1cccc(C)c1)n2C` reads Vaccinia Venus: -5%; Vaccinia mCherry: -12%
`Cn1c(SCC(=O)NC2(C#N)CCCCC2)nnc1-c1cccnc1` reads Vaccinia Venus: 1%; Vaccinia mCherry: -13%

Further compounds.
item | smiles | Vaccinia Venus | Vaccinia mCherry
13 | CN(C)S(=O)(=O)N1CCc2ccccc21 | -11% | -17%
14 | COc1ccc(NC(=O)NN2CCN(C)CC2)c(OC)c1 | -11% | -10%
15 | COCCn1c(=O)[nH]c2cc(C(=O)N3CCN(Cc4ccc5c(c4)OCO5)CC3)ccc2c1=O | -4% | ?
16 | CC(=O)c1c(C)[nH]c(C(=O)CN2C(=O)NC(C)(c3ccc4c(c3)OCCO4)C2=O)c1C (configuration not stated) | -11% | -17%
17 | Cc1ccc(S(=O)(=O)N2CCCC2C(=O)NCc2ccc3c(c2)OCO3)cc1 (configuration not stated) | -19% | i
18 | CC(C)NS(=O)(=O)c1cc(C(F)(F)F)ccc1/C=C/C(=O)O | -9% | -19%
19 | Cc1ccccc1-n1nc2c(c1NC(=O)COc1ccc(Cl)cc1)CS(=O)C2 (configuration not stated) | -6% | i
20 | O=C(Nc1c2c(nn1-c1ccccc1)CS(=O)(=O)C2)c1cccs1 | -14% | i
21 | Cc1nn(C)cc1N1C(=O)c2cccc3c(N)ccc(c23)C1=O | 194%[activator] | i
22 | CCN1C(=O)c2ccccc2S(=O)(=O)c2ccc(C(=O)NCc3ccc(C)cc3)cc21 | -9% | -11%
23 | CC(=O)c1ccc(N2CCN(C(=S)Nc3cccc(Cl)c3)CC2)cc1 | -10% | -18%
24 | Cc1ccc(S(=O)(=O)NCc2ccc(C(=O)NCCc3ccc(S(N)(=O)=O)cc3)cc2)cc1 | -9% | -13%
25 | Cc1cccc(NC(=O)Cn2cc(C(=O)C3CC3)c3ccccc32)c1C | -6% | 42%[activator]
26 | O=C(CN1CCC(C(=O)c2ccc3c(c2)OCCO3)CC1)Nc1ccccc1C(F)(F)F | -6% | 11%
27 | COc1cccc(C2C3=C(CC(C)(C)CC3=O)OC(N)=C2[N+](=O)[O-])c1 (configuration not stated) | -7% | -16%
28 | Cn1ncc(Cl)c1C(=O)N1CCN(C23CC4CC(CC(C4)C2)C3)CC1 | -17% | -4%
29 | CCOC(=O)C1=C(COC(=O)/C=C/c2cccc([N+](=O)[O-])c2)NC(=O)NC1C (configuration not stated) | -20% | ?
30 | COC(=O)COc1ccc(Oc2nc(NC(C)(C)C)nc(N(C)C)n2)nn1 | -19% | -20%
31 | COC(=O)c1ccc2nc(-c3ccco3)c(Cc3ccccc3C(F)(F)F)n2c1 | -8% | -2%
32 | CCOc1ccc(NC(=O)CSc2nc(NS(=O)(=O)c3ccc(C)cc3)cc(=O)[nH]2)cc1 | -2% | -19%
33 | O=C(Nc1ccc(CN2CCOCC2)cc1)c1cc2ccccc2o1 | -20% | -10%
34 | COc1ccc2oc(C(=O)N3CCc4ccccc43)c(C)c2c1 | 16% | -4%
35 | CC(C)Oc1ccc(C(=O)NCC(c2ccc(N(C)C)cc2)N2CCCC2)cc1 (configuration not stated) | -12% | -11%
36 | S=C=NCc1ccccc1 | 0% | -11%
37 | COc1ccc(Nc2oc(COc3ccc(Cl)cc3)nc2C#N)cc1 | -16% | -20%
38 | CC(Sc1nnc(Cc2cccs2)n1C1CCCCC1)C(=O)N1CCc2ccccc21 (configuration not stated) | -29% | nt
39 | Cc1cc(Sc2nccn2C)ncc1[N+](=O)[O-] | -3% | i
40 | CSC(=NCc1cccnc1)NS(=O)(=O)c1cccs1 | -9% | -13%
41 | CCCC(=O)N1CCOCC1c1cc(C(=O)NCc2ccccc2)no1 (configuration not stated) | -3% | 6%
42 | COc1cc(C(=S)N2CCOCC2)cc(OC)c1OC(=O)c1cc([N+](=O)[O-])c(C)c([N+](=O)[O-])c1 | -11% | -14%
43 | COc1ccc(OCc2nnc(SCC(=O)Nc3ccccc3Cl)o2)cc1 | 0% | 5%
44 | CCOC(=O)C1(C)CCCN1C(=O)c1ccc(Cl)nc1 (configuration not stated) | -6% | 2%
45 | O=C1CC(Sc2ncn[nH]2)C(=O)N1c1ccccc1 (configuration not stated) | 3% | 1%
46 | COc1ccc(/C=C/C(=O)OCC(=O)Nc2nnc(-c3ccccc3)o2)c(OC)c1 | -6% | -18%
47 | CC(C)(C)NC(=O)CN1CCN(C(=O)CCl)CC1 | 2.5µM* | ?
48 | CN(CCNC(=O)c1ccc(N2CCCC2=O)cc1)CCc1ccccc1 | -2% | nt

Pulled one by one from the entries so far:
item | smiles | Vaccinia Venus | Vaccinia mCherry
39 | Cc1cc(Sc2nccn2C)ncc1[N+](=O)[O-] | -3% | i
32 | CCOc1ccc(NC(=O)CSc2nc(NS(=O)(=O)c3ccc(C)cc3)cc(=O)[nH]2)cc1 | -2% | -19%
18 | CC(C)NS(=O)(=O)c1cc(C(F)(F)F)ccc1/C=C/C(=O)O | -9% | -19%
8 | COc1ccc2c(c1)c1c(c(=O)n(-c3ccc(F)c(Cl)c3)c(=O)n1Cc1cccc(C)c1)n2C | -5% | -12%

Next section.
entry	compound	Vaccinia Venus	Vaccinia mCherry
49	CCN1CCN(S(=O)(=O)c2ccc(OC)c(NC(=O)c3ccccc3F)c2)CC1	?	-18%
50	CC(C)(C)NC(=O)C(=O)NN=C1CCCCCC1	-3%	7%
51	Cc1ccc(NC(=O)Cn2cc(S(=O)(=O)N3CCC(C)CC3)c3ccccc3c2=O)c(Br)c1	-15%	-13%
52	CCN(CC(=O)Nc1cc(C)c(Cl)cc1OC)CC(=O)NC1CCS(=O)(=O)C1 (configuration not stated)	-12%	-14%
53	CCC(C)(C)C(=O)Nc1ncc(S(=O)(=O)c2ccc([N+](=O)[O-])cc2)s1	?	?
54	CCCCCc1c(O)nc(SCCN(C)C)[nH]c1=O	7%	-6%
55	COc1ccc(C)cc1NC(=O)CSc1nnc(-c2cc3cccc(OC)c3o2)n1N	?	nt
56	CC(=O)C1=C(c2ccc(C)cc2)N(C(C)=O)n2c(nnc2-c2ccccc2)S1	-13%	-21%
57	O=C(CSc1nc2[nH]ncc2c(=O)[nH]1)Nc1cccc([N+](=O)[O-])c1	-6%	-14%
58	Cc1cccc(NC(=O)COc2cccc3c2CCN(C)C3=O)c1	-17%	-17%
59	O=C1CN(C(=O)COC(=O)c2cc(S(=O)(=O)N3CCOCC3)ccc2Cl)c2ccccc2N1	0%	i
60	COc1ccc(Cl)cc1C(=O)NC1CC(C)(C)NC(C)(C)C1	-19%	-12%
61	Cc1cc(OC(C)C(=O)N2CCC(c3nc4ccccc4o3)CC2)ccc1Cl (configuration not stated)	-21%	-9%
62	CCOc1ccc(S(=O)(=O)NCc2cccnc2)cc1C	1%	-9%
63	COc1cc(-c2coc3c(C(=O)NCc4ccncc4)cccc23)ccc1O	?	?
64	NC(=O)CC(NC(=O)Cc1ccc(Br)cc1)c1ccc(NC2CCCCCC2)c([N+](=O)[O-])c1 (configuration not stated)	?	?
65	Cc1cc(C)nc(N2CCN(C(=O)c3ccc(S(=O)(=O)N4CCCCCC4)cc3)CC2)n1	-7%	-15%
66	Cc1cccc(N2C(=O)C(CC(=O)Nc3ccc(F)cc3)N(C3CCCC3)C2=O)c1 (configuration not stated)	-17%	-13%
67	CCCCN(CC)CCCNC(=O)c1cn(C)c2ccc(S(=O)(=O)N(C)C3CCCCC3)cc2c1=O	-12%	-13%
68	CCc1ccc(-c2nc3ccc(Br)cc3c(C(=O)O)c2C)s1	2%	-2%
69	O=c1cc(-c2ccccc2)[nH]c2ccc(F)cc12	?	i
70	COc1ccc(S(=O)(=O)c2ccc(OC)c(OC)c2)cc1OC	-19%	nt
71	COc1cc(CN2CCN(Cc3ccccc3C(F)(F)F)CC2)cc(OC)c1OC	-7%	16%
72	O=C(NNC(=O)c1cccnc1)NC1CCCCC1	8%	i
73	CCOC(=O)c1cnc2c(ccc3ccccc32)c1Nc1cccc(Cl)c1	4%	i
74	CC(=O)C1=C(O)C(=O)N(CCCn2ccnc2)C1c1ccc(Br)cc1 (configuration not stated)	-10%	-7%
75	O=C(c1ccccc1)N(Nc1ccccc1)c1ccccc1	-10%	-26%
76	CCOC(=O)CCn1c(=O)c2c(nc(Br)n2Cc2ccccc2)n(C)c1=O	-12%	nt
77	COc1ccccc1CNC(=O)CC(c1ccc(F)cc1)N1Cc2ccccc2C1=O (configuration not stated)	-6%	-5%
78	COc1ccc2c(c1)c(=O)oc1cc3occ(C(C)(C)C)c3cc12	-9%	-13%
79	CCn1c(Cc2cccn2C)nnc1SCC(=O)c1ccc(C)cc1	-18%	nt
80	Cn1c(NC(=O)c2ccc(Cl)cc2)c(-c2ccccn2)c(=O)c2ccccc21	-8%	i
81	CCc1cccc(CC)c1NC(=O)Cn1nnc2sc3c(c2c1=O)CCCC3	-5%	-11%
82	CCC[N+](CC#Cc1ccccc1)(CCC)CC(=O)OC	-8%	-10%
83	COc1ccc(-c2nc3c4ccccc4ccn3c2Cc2ccsc2)cc1OC	-5%	i
84	COCCNC(=O)C1(C)CCN(Cc2ccccc2C#N)C1 (configuration not stated)	4%	i
85	COCCn1c(=O)[nH]c(=O)c2cc(C(=O)c3cc(Cl)ccc3O)cnc21	-4%	-4%
86	COc1ccc(-c2nc3cc(C)c(Br)c(C)n3c2CC(C)(C)C)cc1OC	12%	19%
87	Cc1ccnc(NC(=O)c2ccc3c(c2)C(=O)N(CCC(C)C)C3=O)c1	8%	-15%
88	O=C(Cn1c(COc2ccc(Cl)cc2)nc2ccccc21)NCC(F)(F)F	-9%	20%
89	COc1cc(C)ccc1OCCCOc1cc(C)ccc1Cl	25%	-6%
90	CC(=O)Nc1sc(C)c(C)c1C(=O)OCC(=O)Nc1cc(S(=O)(=O)N2CCCCC2)ccc1Cl	-18%	-1%
91	CCOC(=O)CC1C(=O)NCCN1Cc1cccc(C(F)(F)F)c1 (configuration not stated)	-7%	i
92	CCN(CC)C(=O)Cn1cc(S(=O)(=O)CC(=O)NCc2ccc(F)cc2)c2ccccc21	-7%	i
93	CCc1ccc(-n2nc(C)c3c2NC(=O)CSC3c2ccc(OC)cc2OC)cc1 (configuration not stated)	-4%	-9%
94	Nc1c(C(=O)NCc2ccc(Cl)cc2)sc2nc3c(c(C(F)(F)F)c12)CCC3	-9%	-12%
95	Cc1c(CCC(=O)O)c(=O)oc2c(C)c(OCc3ccccc3Cl)ccc12	-15%	0%
96	O=C(Nc1cc([N+](=O)[O-])ccc1F)c1ccc2c(c1)OCCO2	10%	i
97	O=C(NCCCn1ccnc1)/C(=C\c1ccccc1Cl)NC(=O)c1ccccc1	-9%	i
98	COCCCN(C)C1CCN(C(=O)Nc2ccc(F)cc2)CC1	-15%	-17%

(continued)
entry	compound	Vaccinia Venus	Vaccinia mCherry
99	CCOc1ccc(NC(=O)NC(C)c2c(-n3cccc3)sc(C)c2C)cc1 (configuration not stated)	-13%	-12%
100	COc1cccc(C(c2nnnn2Cc2ccco2)N2CCN(c3cccc(C)c3C)CC2)c1OC (configuration not stated)	?	?
101	Cc1ccc(C)c(NC(=O)CN(C)C(=O)c2cccc(-n3cccc3)c2)c1	-7%	-11%
102	Clc1ccc(CN2CCc3c([nH]c4ccccc34)C2)cc1Cl	-19%	-16%
103	CC(C)(C)NC(=O)NC(=O)COC(=O)Cc1c(Cl)cccc1Cl	?	-13%
104	COc1ccc(CC(=O)Nc2cccc(/C(C)=N/NC(=O)c3cccc([N+](=O)[O-])c3)c2)cc1	-16%	-4%
105	COc1cccc(CNC(=O)C(=O)Nc2c3c(nn2-c2ccccc2)CSC3)c1	-20%	-23%
106	CC(=O)N1CCN(C(=S)NC(=O)c2ccc(F)cc2)CC1	-13%	i
107	COc1ccc(CN2Cc3ccccc3OC(c3ccccc3OC)C2)c(O)c1 (configuration not stated)	-11%	-21%
108	CC(Oc1ccc(Br)cc1)C(=O)Nc1cc(Cl)ccc1N1CCN(C)CC1 (configuration not stated)	-11%	-15%
109	CNC(C)C#Cc1ccc2sc3cccc(OC)c3c(=O)c2c1 (configuration not stated)	-21%	-7%
110	CCOC(=O)c1cnc(SCC#N)nc1N	-1%	-1%
111	CCOc1ccc(NC(=O)c2nnn(-c3ccc(F)c(Cl)c3)c2C)cc1	0%	-11%
112	O=C(CCNS(=O)(=O)c1ccc(Cl)cc1)N1CCC2(O)CCCCC2C1 (configuration not stated)	-15%	nt

Compound activity from PubChem.
